UUG fidelity – alters start codon recognition fidelity in yeast. 350,000 tested, 0.13% active. activity score, % at 18.7 µM. S. cerevisiae UUG-firefly luciferase reporter, luminescence/redox ratio;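 active = replicate mean at a twofold rise or more, about +100% in these data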;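 also: firefly luciferase made from a UUG start codon reports start codon fidelity; reporter light over untreated wells divided by growth signal over untreated wells; some hits fall short of that in this replicate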
Rce1 inhib – blocks yeast Ras-converting enzyme; Q03530; yeast membranes, quenched prenylated peptide cleavage fluorescence; calls only; 290,000 tested, 0.27% active;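 active = fall in fluorescence gain of 50% or more versus controls, with final raw signal at or below 3038400; inconclusive = same 50% fall but final raw signal above 3038400; inactive = fall in fluorescence gain under 50%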;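 also: plate controls were neutral control wells for no effect and wells lacking membranes for full effect; tested at 10 µM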
Target sequence (Q03530 whole entry, looked up): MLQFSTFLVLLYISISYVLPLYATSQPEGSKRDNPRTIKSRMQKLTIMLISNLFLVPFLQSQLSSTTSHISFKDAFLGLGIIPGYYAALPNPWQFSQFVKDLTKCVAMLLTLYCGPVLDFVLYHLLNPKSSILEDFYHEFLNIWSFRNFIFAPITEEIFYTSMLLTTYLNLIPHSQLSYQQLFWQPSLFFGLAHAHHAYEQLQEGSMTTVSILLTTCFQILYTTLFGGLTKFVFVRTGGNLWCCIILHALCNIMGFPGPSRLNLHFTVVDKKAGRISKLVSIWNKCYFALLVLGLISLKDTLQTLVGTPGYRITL
PABP FP inh – blocks human PABP binding to poly(A) RNA; P11940; fluorescence polarization; inhibition, % at 35 µM; 290,000 tested, 1% active;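 active = 50% or more with normal probe brightness, or confirmed in later tests; inconclusive = above 50% with abnormal brightness, or retests that disagree; inactive = below 50% or failed in later tests; about a fifth of its hits are not listed in these tables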;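 also: calls also rest on retests at 20 µM and on dose response follow-up; controls were probe without protein and protein plus probe with vehicle; some compounds called inactive have numbers as strong as hits; many hits fall short of the cut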
MT1-MMP act inh – MT1-MMP (human) activation inhibition; P50281; HT1080 RFP-PRO-GFP cells, GFP/RFP ratio fluorescence, overnight; percent of plate control window, DMSO zero; GFP/RFP ratio change, % at 20 µM; 360,000 tested, 0.061% active; AID 651647;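 active = GFP/RFP ratio change of at least 30% with cell ATP level not reduced by more than half and red fluorescence within 50% of control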; also: strong numbers were not always called active
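Test system: HT1080 cells expressing an RFP-PRO-GFP fluorescent reporter construct / Compound dosing: single-point 20 µM compound, 1% DMSO / Schedule: cells overnight before dosing, compound overnight, 37 °C, 5% CO2 / Evaluation: GFP/RFP fluorescence ratio / Control set: DMSO and RFP-L50D-GFP cell wells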
HIV Env fusion – blocks HIV Env-driven cell-cell fusion. HeLa-JRFL Env/CEM21 cell fusion, luciferase. inhibition, % at 12.3 µM. 360,000 tested, 1.1% active;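 active = mean replicate inhibition score of at least 50 and every replicate individually at or above 50; inconclusive = only one of the two criteria met; inactive = mean below 50 and not all replicates reaching 50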;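 also: 0% = plate neutral controls and 100% = maraviroc near 300 nM; one replicate is shown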
CSC inhib – cancer stem cell inhibition. cancer stem cell-like cells viability, luminescence. inhibition, % at 7.5 µM. 300,000 tested, 1.1% active;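 active = mean at 75% or more and at least half the replicates too; inconclusive = mean and replicates disagree; tested in HMLE shEcad cells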;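 also: 0% = median of negative and 100% = median of positive control wells; the first replicate is given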
eIF4H inh – inhibitors of RNA binding by human eIF4H | eIF4H fluorescence polarization binding assay | inhibition, % at 35 µM | AID 2012 | 290,000 tested, 0.94% active | Q15056;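 active = 50% or more with normal probe brightness, or confirmed in later tests; inconclusive = above 50% with abnormal brightness, or retests that disagree; inactive = below 50% or failed in later tests; about a fifth of its hits are not listed in these tables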;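 also: calls also rest on retests at 20 µM and on dose response follow-up; 0% = protein and probe with vehicle and 100% = probe without protein; strong numbers were not always called active; many hits fall short of the cut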
MT1-MMP act inh RFP – second read-out of MT1-MMP act inh, no call of its own (marks repeat the call); RFP signal change, %; measured here: RFP expression control read;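 0 = vehicle wells; hits needed this value within 50% of zero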
The depositor's hits bear a star; i = inactive; ? = inconclusive; / = no result given. This is a subset; rates above refer to the full screens.

cpd	SMILES	UUG fidelity	Rce1 inhib	PABP FP inh	MT1-MMP act inh	MT1-MMP act inh RFP	HIV Env fusion	CSC inhib	eIF4H inh
1	COc1ccc(CN2C(=O)[C@@H]3C(c4ccccc4Cl)=NO[C@@H]3C2=O)cc1	-12	i	-10	-1	1	-31	-16	0
2	O=C(Nc1cccc(-c2cnc3ccccc3n2)c1)c1ccc(Cl)cc1	-7	i	-7	6	5	/	28	0
3	CCCOC(=O)CCCC[C@H]1SC[C@@H](NC(=O)OC)[C@H]1NC(=O)OC	-3	i	-7	/	/	-16	4	-7
4	Oc1ccccc1N1CCN(c2ncccn2)CC1	-15	i	-3	-3	-1	-23	-15	-2
5	CCOC(=O)c1cn(CC(=O)Nc2ccc(OC)cc2OC)nn1	-19	i	47	1	3	2	/	6
6	COc1cc2c(C(=O)N3CCN(c4ccccc4)CC3)c(C)oc2cc1Br	/	i	-5	-9	-16	/	33	6
7	COCCn1c(SCC(=O)Nc2ccc3[nH]c(=O)[nH]c3c2)nc2ccccc21	-2	/	/	1	-5	11	-14	/
8	CCCOc1ccc(C(=O)NNC(=O)CCNC(=O)c2ccco2)cc1OC	-10	i	/	-6	-2	/	7	/
9	CC1CCCN(C(=O)CCCNC(=O)c2ccc(Cl)cc2)C1 (stereo unspecified)	-9	i	2	-2	0	0	0	-1
10	CCN(CC(=O)NCc1ccc(Cl)cc1)C(=O)CSCC(=O)Nc1cccc(C)c1	5	i	29	0	0	/	-9	-1
11	C(=C\c1ccccn1)/c1cccnc1	-11	i	6	-1	2	21	/	-4
12	COc1cccc(/C=C(\C#N)C(=O)NC2CCS(=O)(=O)C2)c1 (stereo unspecified)	-27	i	-1	-2	3	/	8	14
13	COc1ccccc1/C=C/C=N/n1c(-c2cc(-c3ccccc3)n[nH]2)n[nH]c1=S	-9	/	3	7	-2	-8	42	-6
14	O=C(Nc1ccc(N2CCOCC2)cc1N1CCOCC1)c1ccc([N+](=O)[O-])cc1Cl	-4	i	3	6	0	8	1	5
15	COc1ccc(Br)c(C(=O)N2CCN(S(=O)(=O)/C=C/c3ccccc3)CC2)c1	-5	i	0	-9	-1	13	-23	-6
16	CCCNS(=O)(=O)c1ccc(OCC(=O)Nc2ccccc2F)cc1	-6	i	-2	-1	3	-51	-15	1
17	COc1ccc(OC)c(C(=O)c2coc3ccc(O)cc23)c1	-14	i	2	-2	1	-104	12	-13
18	CN1CCN(CCOC2Cc3ccccc3Sc3ccc(Cl)cc32)CC1 (stereo unspecified)	/	i	2	-6	-3	-40	-6	-5
19	Cc1cccc(NNC(=S)Nc2c(C)cccc2C)c1	-13	i	-6	1	-1	6	/	6
20	NNC(=S)Nc1ccc(OC(F)(F)F)cc1	/	i	5	-1	5	-9	-1	10
21	Cc1ncsc1C(=O)N1N=C2/C(=C/c3ccc(N4CCOCC4)cc3)CCCC2C1c1ccc(N2CCOCC2)cc1 (stereo unspecified)	-3	i	-18	-15	-8	/	-5	-14
22	CCOc1ccccc1Oc1coc2cc(OC(=O)c3ccco3)ccc2c1=O	-12	i	0	6	0	/	1	-12
23	O=S(=O)(Nc1ccc(Br)cc1)c1cccc(NC(=S)NCCN2CCOCC2)c1	-13	i	7	2	-6	15	-2	1
24	Cc1ccccc1CN1CCN(C(=O)c2ccc(S(=O)(=O)NCc3ccco3)cc2)CC1	-10	/	/	5	-6	-7	/	/

An excerpt from above with just CSC inhib, HIV Env fusion and eIF4H inh:
| no. | smiles | CSC inhib | HIV Env fusion | eIF4H inh |
| --- | --- | --- | --- | --- |
| 15 | COc1ccc(Br)c(C(=O)N2CCN(S(=O)(=O)/C=C/c3ccccc3)CC2)c1 | -23 | 13 | -6 |
| 16 | CCCNS(=O)(=O)c1ccc(OCC(=O)Nc2ccccc2F)cc1 | -15 | -51 | 1 |

Additional records.
cpd	SMILES	UUG fidelity	Rce1 inhib	PABP FP inh	MT1-MMP act inh	MT1-MMP act inh RFP	HIV Env fusion	CSC inhib	eIF4H inh
25	NC(=O)CC(NC(=S)NCc1ccccc1)C(=O)O (stereo unspecified)	-9	i	7	2	3	-5	3	4
26	CCc1ccc(CN(C)C(=O)c2ccc3c(c2)OCCO3)cc1	-3	i	4	-1	0	2	5	-3
27	COc1ccc(Cl)cc1NC(=O)NC(C)c1ccncc1 (stereo unspecified)	-8	i	-4	6	-4	27	-3	2
28	COc1ccc(CSCC(=O)N/N=C/c2ccccc2OCc2ccccc2)cc1	-3	i	3	1	3	-25	/	-1
29	Cc1nnc(NC(=O)c2ccc(S(=O)(=O)N3CCc4ccccc4C3)cc2)o1	/	i	-8	3	3	-4	25	10
30	CCOC(=O)c1cc(-c2ccccc2)n(CC(=O)Nc2ccc(OC)c(OC)c2)c1C	/	i	0	0	1	-5	-8	-17
31	COCc1nc2oc3ccccc3c(=O)c2cc1C(=O)OC	-6	i	8	0	4	-32	-5	1
32	CCCc1nc(SCc2ccccn2)c2c(=O)n(C)c(=O)n(C)c2n1	-11	i	-2	-1	-6	5	107*	-3
33	CCS(=O)(=O)N1CCN(C(C)CCc2ccccc2)CC1 (stereo unspecified)	-17	i	-9	5	1	-26	-3	0
34	O=C(c1cc(-c2ccccc2)on1)N1CCCc2ccccc21	/	i	-1	0	-1	4	-13	8
35	c1ccc2c(c1)CC/C2=N/Nc1nc2ccccc2[nH]1	-21	i	0	18	-2	-105	/	-2
36	Cc1ccc2nc(-c3cccc(Br)c3)cc(C(=O)NC3=NCCS3)c2c1	/	i	-18	-1	-2	-5	17	1
37	O=C(NCc1ccc2c(c1)OCO2)c1cc(F)c(F)cc1Cl	-6	i	1	0	-1	-72	-20	-1
38	O=C(Nc1cccc(F)c1)c1c(O)c2cccc3c2n(c1=O)CCC3	/	i	-9	/	/	/	6	-9
39	O=C(CCCN1C(=O)c2cccc3cccc(c23)C1=O)N1CCN(c2ccccn2)CC1	/	i	33	1	-1	-3	8	-10
40	O=C(OCC(=O)N1CCN(c2ccccc2)CC1)C1=COCCO1	-18	i	-2	4	7	-67	3	1
41	Cn1cnc2cc(NCc3ccccc3Cl)ccc21	-19	i	3	10	3	-5	2	-9
42	OCCN1CCN(C(=S)NC2CCCC2)CC1	/	/	-12	12	8	1	-16	5
43	Cc1cccc2sc(NC(=O)Cn3cccc3)nc12	1	i	-22	-6	-16	-15	0	7
44	CCCCNS(=O)(=O)c1ccc(OC)c2ncccc12	3	i	-2	-2	3	8	2	-1
45	CCCCNC(=O)/C(C#N)=c1\s/c(=C\c2ccccc2OC(F)F)c(=O)n1CCCOC	-7	i	14	-18	10	/	13	?
46	CN1CCN(CC(=O)Nc2nc(-c3ccccc3)cs2)CC1	-2	i	-5	0	4	/	3	0
47	CCOC(=O)c1sc(NC(=O)c2ccncc2)nc1C	-15	i	3	-2	-1	/	-3	4
48	Cc1c(C(=O)NCc2n[nH]c(=S)n2-c2ccc(F)cc2)cccc1[N+](=O)[O-]	/	/	28	-4	-1	-11	6	0
49	N#Cc1cccc(NC(=O)COC(=O)c2cc(S(=O)(=O)Nc3ccccc3Cl)ccc2O)c1	/	/	/	6	2	15	8	/
50	CC(C)[C@H](NC(=O)c1ccco1)C(=O)Nc1ccc(N2CCCCCC2)cc1	-13	/	/	-3	3	-2	/	/
51	N#CC1(NC(=O)CSc2nc3ncc(Cl)cc3[nH]2)CCCCC1	-19	i	/	2	-6	-10	2	/
52	O=C(NC1CCCCC1)C(c1ccncc1)N(Cc1ccc2c(c1)OCO2)C(=O)c1cnsn1 (stereo unspecified)	3	i	-10	1	4	/	-6	18
53	CSC1=NC2(C)CCCCC2C12C=CC(=O)C=C2 (stereo unspecified)	/	i	12	-4	1	0	-1	-1
54	COc1ccccc1CCN=C(N)NS(=O)(=O)c1ccc(C)cc1	/	i	-9	4	5	18	0	-6
55	Cc1nc(C)c(C(=O)O)c(-c2ccsc2)c1C(=O)O	-22	i	1	0	2	4	2	-7
56	COc1ccccc1NC(=S)N1CCCC1	/	i	-4	-1	3	1	-10	6
57	Cc1cc(C)cc(NC(=O)CN2C(=O)NC(C)(c3ccccc3)C2=O)c1 (stereo unspecified)	-2	i	-2	2	5	/	-12	1
58	C/C(=N/NC(=O)c1ccco1)c1cccc(NC(=O)c2ccc(C)o2)c1	-24	i	-4	2	3	/	-15	5
59	CC(=O)Nc1ccc(S(=O)(=O)N[C@@H](C)C(=O)OCC(=O)c2ccc(Br)s2)cc1	1	/	/	-2	2	-14	/	/
60	COc1ccc(S(=O)(=O)N(C)C[C@H]2Oc3ncc(Br)cc3C(=O)N([C@@H](C)CO)C[C@@H]2C)cc1	13	/	/	-1	4	16	/	/
61	O=[N+]([O-])c1nn(-c2ccccc2)n(O)c1=NC1CCN(Cc2ccccc2)CC1	/	i	-9	-11	-11	16	17	-1
62	CS(=O)(=O)Nc1ccccc1C(=O)Nc1cc2c(cc1C(=O)O)OCCCO2	-15	i	4	2	7	-1	-3	0
63	Cc1[nH]c2ccccc2c1/C=N/NC(=O)CNC(=O)c1ccc2c(c1)OCO2	/	i	-3	-2	-1	-2	-16	-4
64	CCC(=O)N1CCc2cc(Br)cc(S(=O)(=O)N3CCCC(C(=O)NC(C)(C)C)C3)c21 (stereo unspecified)	21	/	2	0	-2	2	4	-1
65	Cc1cccc2sc(NC(=O)c3ccc(NS(=O)(=O)c4cccs4)cc3)nc12	-3	i	-6	3	3	-25	60	3
66	CC(C)[C@H](NC(=O)c1cccc(S(=O)(=O)N2CCOCC2)c1)C(=O)Nc1nc2ccccc2s1	-13	i	3	-16	-18	/	-9	1
67	c1ccc(CCc2ccccc2-c2nc(-c3cccnc3)no2)cc1	-25	i	29	-2	0	/	35	15
68	CCOc1ccc(OCC)c(NC(=O)C2CCN(S(=O)(=O)c3cnc[nH]3)CC2)c1	-4	/	6	13	2	-88	/	8
69	C[N+](C)(C)CCCNC(=O)c1ccc(/C=N/O)nc1	/	i	-8	-2	2	1	-8	-5
70	Cc1ccccc1C(=O)NCC(=O)NNC(=S)NC(=O)c1ccccc1C	-11	i	-5	-6	0	-30	0	11
71	CCCn1c(=O)cc(N)n(-c2ccc(OC(F)(F)F)cc2)c1=O	-1	i	-1	-2	2	-21	12	-1
72	Cc1c(Cl)cccc1NC(=S)Nc1ccc(S(=O)(=O)Nc2ncccn2)cc1	/	/	/	-1	1	-1	-16	/
73	O=C(Cn1cnc2scc(-c3ccc(F)cc3)c2c1=O)N1CCOCC1	-30	i	2	0	-2	-27	4	2
